Bead autofluor = counter-screen for toxin protease inhibitors: compound fluorescence; AID 624483; hit rate 3.1% among 360,000; compound autofluorescence counterscreen, microsphere flow cytometry; active compounds read high; fluorescence intensity (no concentration beside the values);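 active = at least 3 SD above the mean of all compounds, about 16000 in these data; inconclusive = too few beads counted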;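 note: 100 nL of 1 mM stock went into each well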
PrP UTR inh = suppresses PrP 5' UTR mRNA reporter expression; cell-based PrP 5' UTR mRNA reporter, plate reader; inhibition, % (test concentration not listed); hit rate 0.35% among 340,000; AID 488862;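 active = every replicate at 50% or more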;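 note: 0 = median of the neutral control wells; tested in H4 reporter cells; numbers are from one replicate; inactives centre near -14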
Mtb hypoxia rep = inhibitors of hypoxia-regulated fluorescent reporter in Mycobacterium tuberculosis; M. tuberculosis hypoxia-regulated fluorescent reporter, fluorescence; fluorescence inhibition, % (concentration not given with the values); hit rate 0.1% among 300,000; AID 1159583;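 active = 35 to 45% if threefold the growth effect, above 45% if 1.5-fold the growth effect; inactive = the rest, general growth blockers included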;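 note: wells of about 50 µL received 100 nL stock; 0% = vehicle wells and 100% = reference inhibitor wells; whole bacteria with a GFP reporter of the hypoxia response; strong numbers were not always called active; many hits fall short of the cut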
Sa RN4220 lethal = S. aureus RN4220 growth inhibition | OD600, 16 h | inhibition, % (test concentration not listed) | hit rate 0.33% among 330,000 | AID 1259311;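 active = z-score of -3 or lower and OD600 up to 0.18 on both plates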;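 note: plate controls were untreated cells for no effect and reference antibiotic for full effect; stock transfer was 100 nL into about 80 µL; one replicate is shown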
BJeLR lethal = BJeLR cell viability loss. AID 1554. inhibition, % (concentration not given with the values). hit rate 0.17% among 300,000. BJeLR (HRASV12) viability, CellTiter-Glo ATP luminescence, 48 h; reference of the scale not given here;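 active = replicate mean above 50%; inconclusive = above 50% but judged a plate artefact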;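 note: 50 nL library stock added to about 25 µL; numbers are from one replicate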
ugtP null kill = kills S. aureus RN4220 lacking UgtP. S. aureus RN4220 ugtP deletion, OD600 growth, 16 h; some inactives read as strong as hits. growth inhibition, % (no concentration beside the values). hit rate 0.54% among 330,000;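 active = z-score under -3 and OD600 up to 0.15 on both plates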;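 note: plate controls were untreated wells for no effect and antibiotic for full effect; wells of about 80 µL received 100 nL stock; the first replicate is given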
Mtb hypoxia rep growth = also measured in Mtb hypoxia rep; calls as there; growth inhibition, %; measured here: M. tuberculosis growth (absorbance);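 0% = vehicle and 100% = reference antibiotic; read after six days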
Active calls of the source: *; ? = inconclusive; . = not tested or not shown; & = joins results of further samples.

structure,Sa RN4220 lethal,Mtb hypoxia rep,ugtP null kill,Bead autofluor,Mtb hypoxia rep growth,BJeLR lethal,PrP UTR inh
CCCC[C@@H]1C=C(C(=O)O)[C@H](c2ccc(CC)cc2)N1S(=O)(=O)c1ccc(C)cc1,19,-1,-16,2999,1,.,5
O=C(CN1CC(c2ccccc2)CC1=O)N/N=C/c1cc(Br)ccc1O (stereo not given),.,.,.,2082,.,-2,-12
COc1cc(/C=N/NC(=O)Cc2ccccc2)cc(OC)c1OC,.,.,.,4433,.,-7,-13
COc1cc(NC(=O)c2c(-c3ccccc3Cl)noc2C)c2ncccc2c1,3.3,11,8,5701,-3,-11,-20
CC1=C(C(=O)Nc2ccccc2)C(c2ccc(C)o2)n2c(sc(=Cc3ccccc3)c2=O)=N1 (stereo not given),4.5,-7,-13,.,-3,.,.
COC(=O)C1=C(C(=O)OC)C2N(C)c3ccc(OC)cc3[C@@]23CC(C(=O)OC)N(C(=O)COCc2ccccc2)C3=N1 (stereo not given in full),4.0,8,1,.,-5,.,.
CC1=CC(C)(C)N(C(=O)CSc2nnc(-c3ccccc3)o2)c2ccc(C)cc21,8.4,6,-14,9297,0,-15,-11
Cc1cc(C)c(C#N)c(Oc2ccc(O)cc2)n1,3.3,10,10,6006,8,-4,-2
CCc1nc(SCC(=O)c2cccc([N+](=O)[O-])c2)n[nH]1,3.9,2,5,3169,7,2,-12
CCOC(=O)CNC(=S)N(Cc1cccs1)C1CCCC1,6.1,5,7,2497,0,1,-29

Remaining list, next part:
structure,Sa RN4220 lethal,Mtb hypoxia rep,ugtP null kill,Bead autofluor,Mtb hypoxia rep growth,BJeLR lethal,PrP UTR inh
O=C(CNS(=O)(=O)c1ccc(Br)s1)NCc1ccc2c(c1)OCO2,-0.2,11,5,24766*,11,5,-3
COc1cc2nc(C3CCC3)n(NC(=O)C3CCC3)c(=O)c2cc1OC,4.6,9,4,3681,8,1,-10
COCc1cccc(NC(=O)Cc2cccc3ccccc23)c1,-1.4,-1,1,3397,-1,-1,-6
CCn1c(C)nc2cc(C(=O)N=Nc3c(O)[nH]c4ccccc34)ccc21,-0.9,10,-1,.,5,-17,.
CCCCn1c(N)c(N(Cc2ccccc2OC)C(=O)COc2ccc(C)cc2)c(=O)[nH]c1=O,2.5,11,4,5411,3,0,-9
Cc1ccc(Cn2cnc3c(cnn3C(C)(C)C)c2=O)cc1,3.6,13,9,4373,2,3,-20
O=C(CN1c2cccc3cccc(c23)S1(=O)=O)NCCc1ccc(F)cc1,3.8,7,0,2860,0,.,-16
O=C(NCc1ccc2c(c1)OCO2)C1CCN(c2nccc(C(F)(F)F)n2)CC1,-0.1,4,9,4156,-14,-4,-6
COc1cc(NC(=O)Cc2ccccc2OC)cc(OC)c1,3.8,6,6,8729,8,0,-15
Cc1ccc(C)n1-c1ccc(C(=O)NN=C2CCCC2)cc1,1.6,14,2,4224,5,-9,-33

Some values from the results shown:
Sa RN4220 lethal with Cc1ccc(C)n1-c1ccc(C(=O)NN=C2CCCC2)cc1 → 1.6
ugtP null kill with O=C(CN1c2cccc3cccc(c23)S1(=O)=O)NCCc1ccc(F)cc1 → 0

Continued.
structure,Sa RN4220 lethal,Mtb hypoxia rep,ugtP null kill,Bead autofluor,Mtb hypoxia rep growth,BJeLR lethal,PrP UTR inh
CCN(CC(=O)Nc1ccc2c(c1)OCCO2)C(=O)C1CC(=O)N(c2ccc(OC)cc2OC)C1 (stereo not given),1.2,-1,-2,4792,0,3,-14
CCCOc1ccc(C(=O)Nc2c[nH]c(=O)[nH]c2=O)cc1,.,.,.,9027,.,-5,-100
COc1ccc(/C=C2/SC(=O)N(CCCCCC(=O)Nc3ccccc3C(=O)O)C2=S)cc1,37,9,51,2192,5,4,4
Cc1ccc(-c2cn(CC3CCC(C4CCC(Cn5cc(-c6ccc(C)cc6)nn5)O4)O3)nn2)cc1 (stereo not given),-0.2,-5,-1,.,13,.,.
CCOc1ccc(CCNC(=O)C2CCN(S(=O)(=O)N3CCCCC3)CC2)cc1OCC,3.8,6,5,2723,-1,13,-9
COc1ccccc1C(=O)Nc1nnc(SCC(=O)NCC2CCCO2)s1 (stereo not given),0.2,10,6,5410,8,1,-64
O=C(N/N=C/c1cc2ccccc2nc1Cl)/C(=C/c1cccs1)NC(=O)c1ccccc1,.,.,.,4003,.,-9,-3
N=c1oc2cc(O)ccc2cc1C(=O)Nc1nc2ccccc2s1,9.9,1,-3,2573,5,6,-157
Cc1ccc(OCC(=O)N/N=C/C=C/c2ccco2)c(Br)c1,.,.,.,4864,.,8,-35
Cc1cccc(-c2ncc(CN3CCN(CCC(C)C)C(CCO)C3)cn2)c1 (stereo not given),5.2,6,14,4412,-3,1,-56

(further entries)
structure,Sa RN4220 lethal,Mtb hypoxia rep,ugtP null kill,Bead autofluor,Mtb hypoxia rep growth,BJeLR lethal,PrP UTR inh
COc1ccc2oc(C(=O)NCC(c3ccco3)N(C)C)c(C)c2c1 (stereo not given),7.1,5,2,3768,5,2,0
CNC(=O)C1CC(=O)N(c2ccc(OCC(=O)Nc3ccccc3C)cc2)C1 (stereo not given),6.6,3,5,?,0,.,-17
Cc1nn(C)c(C)c1S(=O)(=O)N1CCC(C(=O)Nc2ccc3c(c2)OCCO3)CC1,2.9,.,12,5504,.,-1,-13
CC(C)(C)C(=O)Nc1nnc(CC(=O)NCc2ccccc2)s1,5.4,9,9,2555,-7,6,-8
CCCCCCOC(=O)CCn1[nH]c(=O)c2ccccc2c1=O,3.6,.,3,5046,.,6,-6
CN(C)[C@@H]1CCC[C@H]1OC(=O)C(c1ccccc1)c1ccccc1,-0.9,7,7,2204,5,-12,-15
CCN(CC)C(=O)c1cn(-c2cccc(OC)c2)c(=O)c2ccccc12,1.9,1,5,4056,-1,0,-20
Cc1cc(C)n2nc(C(=O)Nc3ccn(Cc4ccccc4C)n3)cc2n1,3.9,4,1,4384,4,-4,-16
O=C(COC(=O)c1c(F)cccc1F)Nc1ccccc1OC(F)F,1.8,11,12,3097,-2,0,-9
CC(Sc1nnc(COc2ccc([N+](=O)[O-])cc2)n1-c1ccccc1)C(=O)O (stereo not given),0.0,-5,2,4269,11,7,-18

The list continues.
structure,Sa RN4220 lethal,Mtb hypoxia rep,ugtP null kill,Bead autofluor,Mtb hypoxia rep growth,BJeLR lethal,PrP UTR inh
Cn1c(CCC(N)=O)nnc1SCC(=O)Nc1cc(S(=O)(=O)N2CCCC2)ccc1Cl,2.5,13,7,?,0,.,-16
COC(=O)/C=C1/SC(=NC(=O)c2ccc(OC)cc2)NC1=O,5.6,9,2,5447,6,5,-5
CCc1c(C#N)c(SCCC(=O)Nc2ccc(F)cc2)nc2c1C(=O)CC(C)(C)C2,1.4,9,-34,2913,7,-6,-10
Cc1cccc2c(SCC(=O)NCC3CCCO3)nc(-c3ccc(F)cc3)nc12 (stereo not given),2.6,7,-6,9232,5,-8,-3
COc1ccc(S(=O)(=O)NCCc2ccncc2)cc1,5.7,18,1,3892,9,2,-19
O=S(=O)(c1cccs1)N1CCN(c2ccc(Cl)cc2)CC1,4.6,10,27,5216,6,15,-27
O=[N+]([O-])c1ccc(Cl)c(-c2ccc(C=Nn3cnnc3)o2)c1,0.6,9,17,.,-12,.,.
COc1ccc2[nH]c(=O)c(CN(CCN3CCCC3)C(=O)Nc3ccccc3Cl)cc2c1,-9.4,14,-5,7795,15,7,0
CCn1c(C)nc2cc(C(=O)NNC(=S)Nc3ccccc3)ccc21,6.0,8,1,4228,6,2,-36
Cc1cc2oc(=O)cc(CN3CCCCC3)c2cc1O,1.8,5,11,3009,4,0,-16

New compounds follow
structure,Sa RN4220 lethal,Mtb hypoxia rep,ugtP null kill,Bead autofluor,Mtb hypoxia rep growth,BJeLR lethal,PrP UTR inh
O=C(N/N=C/c1sc2ccccc2c1O)c1cccc2ccccc12,.,.,.,2607,.,34,18
COc1ccc(/C=C/C(=O)NC(=S)Nc2ccc(S(=O)(=O)Nc3cc(C)on3)cc2)cc1,9.4,11,-2,4121,10,-9,-16
NS(=O)(=O)c1ccc(NC(=S)N2CCc3ccccc32)cc1,4.4,-9,9,.,-9,4,-25
COc1ccc(N(C(C)C(=O)NN=Cc2ccc(OC)c(OC)c2)S(C)(=O)=O)cc1 (stereo not given),4.1,6,3,.,1,.,.
COc1ccc(C)cc1NC(=O)C1CCCN(S(=O)(=O)c2ccc3[nH]c(=O)ccc3c2)C1 (stereo not given),0.0,-10,-1,4779,0,7,-23
Cc1ccc(S(=O)(=O)N2CCCN(C(C)c3nc4ccccc4c(=O)[nH]3)CC2)cc1 (stereo not given),3.6,-3,3,8872,10,.,-9
CC(=O)Nc1ccc(S(=O)(=O)Nc2nc(C)cc(-n3nc(C)cc3C)n2)cc1,0.9,.,6,2429,.,4,-20
CNC(=S)NCc1ccc(OC)cc1,4.6,-10,10,1987,-8,-4,-6
O=C(CN1C(=O)/C(=C/c2ccc(C(F)(F)F)cc2)Sc2ccccc21)NCCCN1CCOCC1,-1.9,13,6,.,16,4,-21
Cc1ccc(CNC(=O)/C=C/c2ccc(Br)o2)cc1,3.6,12,-1,2237,7,-5,-17

The listing continues.
structure,Sa RN4220 lethal,Mtb hypoxia rep,ugtP null kill,Bead autofluor,Mtb hypoxia rep growth,BJeLR lethal,PrP UTR inh
CN1CCN(C(=O)c2cc(Cl)ccc2NC(=O)c2ccc(Cl)cc2Cl)CC1,3.5,4,-4,6184,2,-2,-21
CCOc1cc(S(=O)(=O)N2CCN(Cc3ccccc3)CC2)ccc1Br,-3.0,.,7,5053,.,-2,-13
c1cnc(Oc2ccc(-c3nnco3)cc2)cn1,-0.2,-8,-3,4403,5,4,-8
O=[N+]([O-])c1cc(S(=O)(=O)N2CCCCC2)ccc1NCc1cccc(Cl)c1,-1.2,4,-16,2542,9,12,-7
O=C(NC(Cc1ccccc1)C(=O)NC(Cc1ccccc1)C(=O)O)c1ccccc1 (stereo not given),3.8,-2,0,4870,-4,0,-12
CN1CCN(S(=O)(=O)c2cccc(S(=O)(=O)c3ccc(Cl)c(Cl)c3)c2)CC1,1.0,.,9,2515,.,8,-10
O=C(Nc1ccccc1)/C(=C/c1ccccc1)c1ccccc1,-6.4,.,-10,2774,.,-3,-18
CCN1CCOC(CC(=O)Nc2cccc([N+](=O)[O-])c2)C1=O (stereo not given),4.0,2,6,3324,1,-5,.
CCCN1CCN(CCNC(=O)Nc2cc(C)ccc2C)CC1,1.0,15,6,2909,-4,2,-16
O[C@@H]([C@H](O)[C@H](O)CBr)[C@H](O)CBr,.,.,.,4504,.,-10,-10

The list goes on:
structure,Sa RN4220 lethal,Mtb hypoxia rep,ugtP null kill,Bead autofluor,Mtb hypoxia rep growth,BJeLR lethal,PrP UTR inh
CCCc1c(C(=O)N/N=C(\C)CCc2ccccc2)nnn1-c1nonc1N,.,.,.,6223,.,-8,6
Cc1ccc(N2CC(C(N)=O)CC2=O)cc1 (stereo not given),2.7,6,5,18778*,10,-4,-9
COc1ccccc1C1(CC(=O)N2CCCCC2)CCOC(C(C)C)C1 (stereo not given),1.9,4,-3,16312*,10,-4,7&-16
CCOc1ccc(N2C(=O)Nc3ccccc3C2(O)C(=O)NCc2ccccc2)cc1 (stereo not given),1.7,-9,3,3520,9,.,0
COc1ccc(C(CC(=O)O)NS(=O)(=O)c2ccc(C)cc2)cc1OC (stereo not given),-0.3,.,7,2395,.,-4,-47
CN(C(=O)c1cc(S(=O)(=O)N2CCOCC2)cs1)c1ccccc1,-0.9,6,2,5611,2,0,-13
COc1ccccc1N(CC(=O)NCC1CCCO1)C(=O)CCC(=O)Nc1cc(C)on1 (stereo not given),2.5,6,10,4359,2,-3,1
CC1(C)C(c2ccccc2)=NC(c2ccc(Br)cc2)N1O (stereo not given),18,0,5,3207,10,1,-7
CCC(C)Sc1cccc(-c2nc3ccc(C)cn3c2NC2CCCCC2)c1 (stereo not given),-5.8,2,-15,4320&5931,8,-3,1
CCOC(=O)Cc1csc(NC(=O)CSc2nc3cccnc3n2CC)n1,-4.9,17,3,4735,8,-5,-3

Following part:
structure,Sa RN4220 lethal,Mtb hypoxia rep,ugtP null kill,Bead autofluor,Mtb hypoxia rep growth,BJeLR lethal,PrP UTR inh
O=C(O)CCCNC(=O)c1cncc(O)c1,3.3,7,0,10603,-1,19,-17
COC(=O)c1ccc(OCC(=O)Nc2nn(-c3ccccc3)nc2C(N)=O)cc1,0.5,-10,-3,22226*,5,-1,-15
Cn1c(SCC(=O)Nc2nccs2)nnc1-c1cccnc1,1.6,3,-1,4449,10,.,-15
CC(=O)Nc1cccc(NS(=O)(=O)Cc2ccc(Cl)cc2)c1,1.9,19,1,10500,14,2,-11

Source: PubChem BioAssay (several laboratories)
